HPGD inh – HPGD (human) dehydrogenase inhibition; purified HPGD, NADH fluorescence kinetic, PGE2 substrate; Potency, µM, without a hit: top-dose activity change, negative = inhibition, most hits filed as inhibitors; 150,000 compounds, 4.3% hits; active = well fitted inhibition curve with a large enough effect (not every such curve was filed as active); inconclusive = small, poorly fitted or top-dose-only effect, or another doubt; inactive = no such curve, though single readings can be large or run the other way;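 further: top concentration of the series not given in the record; plate controls included wells without enzyme; inactives centre near -10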
Target sequence (P15428 whole entry, looked up): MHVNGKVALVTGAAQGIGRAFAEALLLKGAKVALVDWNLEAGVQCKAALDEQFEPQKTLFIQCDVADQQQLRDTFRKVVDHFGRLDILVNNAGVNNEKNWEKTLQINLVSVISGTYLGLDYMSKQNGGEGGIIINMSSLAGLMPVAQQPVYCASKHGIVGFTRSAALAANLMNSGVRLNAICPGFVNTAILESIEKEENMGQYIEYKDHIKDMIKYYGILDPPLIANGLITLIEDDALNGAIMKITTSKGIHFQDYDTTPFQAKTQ
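NADH formation kinetics: reaction with 30 uM PGE2 and 1 mM NAD+ (final), 20 nM enzyme, Tris-HCl pH 8 with Tween 20, after 15 min compound preincubation at room temperature. Fluorescence change, last versus first of five reads.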
Active calls of the source: *; ? = inconclusive; & = joins results of further samples. On the % scale 0 is the no-effect control and ±100 the full control effect; potency means the concentration at half of the fitted maximal effect. The list is partial. The share of hits here may be higher or lower than overall.

The opening three entries as a preview:
SMILES	HPGD inh
CN(C(=O)c1ccccc1NC(=O)C(F)(F)F)c1ccccc1	-0.3%
CC(C)NC(=O)c1ccccc1S(=O)(=O)c1ccccc1C#N	3.8%
CCOC(=O)c1ccc(NC(=O)COc2ccccc2OC)cc1	-4.4%

Results, previewed entries included:
SMILES	HPGD inh
CN(C(=O)c1ccccc1NC(=O)C(F)(F)F)c1ccccc1	-0.3%
CC(C)NC(=O)c1ccccc1S(=O)(=O)c1ccccc1C#N	3.8%
CCOC(=O)c1ccc(NC(=O)COc2ccccc2OC)cc1	-4.4%
Cc1ccc(NC(=O)Cn2cc3c(n2)CCC(C)C3)cc1 (stereo not drawn)	2.1%
CC(C)(C)C(=O)C(CO)(Oc1ccc(Cl)cc1)n1cncn1 (stereo not drawn)	-3.9%
O=C(O)CCC(=O)Nc1ccccc1C(=O)NCc1ccccc1	3.0%
COc1cc(C2NC(=O)c3ccccc3O2)cc(OC)c1OC (stereo not drawn)	?
CC(=O)N=c1sc(S(N)(=O)=O)nn1C	-16.0%
Cc1ccc2nc(NCc3ccccc3)c(C=O)c(=O)n2c1	?
CC(C)CCCC(C)C1CCC2C3CC(=O)[C@H]4CC(O)CC[C@]4(C)C3CC[C@@]12C (stereo partly drawn)	-10.4%
Cc1ccc(NC(=O)Cc2nnc(SCC(=O)c3ccc(Br)cc3)n2C)cc1Cl	-10.8%
Nc1nc(-c2ccc(Cl)cc2)cn1N	-10.6%
Cc1[nH]nc(SCC(=O)NCc2ccc(F)cc2)c1[N+](=O)[O-]	-14.7%
O=C1c2sc3nc4ccccc4n3c2C(=O)N1c1ccccc1Cl	14.1µM*
COCCCNC(=O)c1cc(C(=O)c2c(-c3c(Cl)cccc3Cl)noc2C)c[nH]1	-5.0%
Cc1ccc(-c2nc3ccccc3[nH]2)cc1NC(=O)c1ccc2c(c1)OCO2	-11.3%
COc1cccc(OC)c1OCCCc1c(C)n[nH]c1C	1.7%
Cc1ccc(OCC(=O)NCc2ccccn2)cc1	-10.9%
COc1ccc(C)cc1NS(=O)(=O)c1ccc(Br)s1	-0.2%
O=C1C2C3c4ccccc4C(c4ccccc43)C2C(=O)N1c1nc(-c2ccccc2)cs1 (stereo not drawn)	-4.1%
Cc1cc2c(C)c(C)c(=O)[nH]c2cc1N	?
CCCCOc1ccc(S(=O)(=O)n2c(C)nc3ccccc32)cc1	-5.9%
CCCCCNC(=O)c1cc(S(=O)(=O)N2CCCC2)ccc1F	-0.6%
CC(C)N1C(=O)CCC1C(=O)NCCc1ccc(Cl)cc1 (stereo not drawn)	1.7%
CC1CNCCN1S(=O)(=O)c1cccc2cnccc12 (stereo not drawn)	-7.2%&-10.5%
CC(=O)Nc1cc(N2C(=O)CCC2=O)ccc1Cl	1.8%
Cc1ccc(-c2noc(CCC(=O)NCCN3CCOCC3)n2)cc1	-4.2%
CCOC(=O)c1ccc(Oc2nc(NC)nc(SC)n2)cc1	-7.5%
COc1ccc2nc(NC(=O)CSc3nc4ccccc4o3)sc2c1	-19.2%
O=C1CCCN1c1ccc(S(=O)(=O)N2CCC(c3ccccc3)CC2)cc1	-0.6%
CCOc1ccc(CCNC(=O)c2cccc(N3CCCC3=O)c2)cc1OCC	3.8%
COc1ccccc1-c1c(C)nn2c(NCCN3CCCC3)cc(C)nc12	-4.5%
O=S(=O)(NCCn1ccc2ccccc21)c1ccccc1	-6.6%
COc1ccc(NC(=S)N2CCC(N(C)CC3CCCO3)CC2)cc1 (stereo not drawn)	-16.3%
O=C(OCc1ccccc1)/C(=C/c1cccc2ccccc12)NC(=O)c1ccccc1	-5.8%
CC(C)(C)c1nc(SCC(=O)NCc2ccco2)c2ccccc2n1	-17.5%
N#Cc1ccc(-c2ccccc2)nc1SCCN1CCOCC1	-7.4%
CC(=O)Nc1ccc(S(=O)(=O)N2CCc3nc(-c4ccccc4)c4c(c3C2)CO[C@@H](C)C4)cc1	-6.1%
Cc1ccc(-n2c(CCC(=O)O)ccc2-c2cccs2)cc1C	-23.1%
Cc1ccc(OCC(=O)Nc2ccc(N3CCOCC3)cc2)cc1	-7.9%
COc1ccc(NC(=O)C2CCN(c3nnnn3-c3ccccc3)CC2)cc1	-8.0%
CN=C(Nc1cc(C)nn1CCC#N)c1ccccc1	-0.2%
COc1cccc(OCC(O)CN2CCN(c3ccccn3)CC2)c1 (stereo not drawn)	-12.8%
Cc1ccc(-c2csc(SCC(=O)Nc3cc(C)on3)n2)cc1	-16.5%
O=C(/C=C/c1ccccc1)N1CCN(Cc2nc3ccccc3c(=O)[nH]2)CC1	31.6µM*
O=C(c1ccncc1)N1CCC[C@@]2(CCN(Cc3cc(C(F)(F)F)cc(C(F)(F)F)c3)C2)C1	-5.2%
Cc1nc2sc3c(c2c(=O)n1/N=C/c1ccco1)CCCC3	-14.3%
CC(=O)NC(=S)Nc1ccccc1C(=O)NC1CCCCC1	-2.3%
COc1ccc(CCNC(=O)COC(=O)C23CC4CC(CC(Br)(C4)C2)C3)cc1	-5.5%
CCCCNC(=O)Cn1nc([N+](=O)[O-])c([N+](=O)[O-])c1C	-2.4%
CC(C)=C1C2CCC1C1C(=O)N(NC(=O)COc3ccc(C(C)(C)C)cc3)C(=O)C21 (stereo not drawn)	-10.9%
Cc1cc(C)c(C#N)c(SCC(=O)CC(=O)OC(C)C)n1	-5.8%
CCOc1cccc(C(=O)NNC(=O)CCC(=O)O)c1	?
CC(C)CCN1CC(C(=O)N2CCN(c3ccc(F)cc3)CC2)CC1=O (stereo not drawn)	-8.5%
COc1ccc(C(CNC(=O)c2cc3ccccc3cc2OC)N2CCCC2)cc1 (stereo not drawn)	-21.7%
CCCSc1nc(O)c(C2OC(=O)c3c2ccc(OC)c3OC)c(=O)n1C (stereo not drawn)	-19.2%
COc1ccc(OC)c(CNCCNC(=O)c2ccco2)c1	-1.9%
N/C(=N\OC(=O)c1cccc(Cl)c1)c1cccnc1	-18.0%
Clc1ccc(-c2nnc3sc(Cc4cccs4)nn23)c(Cl)c1	?
CCOc1ccc(C(C)NC(=O)c2cccc(F)c2)cc1 (stereo not drawn)	-10.8%

(more compounds)
SMILES	HPGD inh
O=C(NCCc1ccccc1)C1CCN(S(=O)(=O)N2CCCC2)CC1	-9.4%
O=C(COC(=O)CNS(=O)(=O)c1ccc(F)c(F)c1F)Nc1ccc(OC(F)F)cc1	-0.7%
CC(=O)c1cc(-c2ccccc2)[nH]c1N1CCCC1	4.8%
COc1ccc(/C=N/NC(=O)Nc2nonc2N)cc1	-29.5%
CCCCC/C=C\C[C@H](O)/C=C/C=C\C/C=C\CCCC(=O)O	-10.4%
CCOC(=O)c1c(N)sc2c1CCSC2	-21.7%
CC(=O)Nn1cnc2c(c1=O)C1(CCCC1)Cc1ccccc1-2	-11.6%
O=c1nc2sc3ccccc3n2c(=O)n1-c1cccc(Cl)c1	-9.7%
COc1ccc(NC(=S)NC(NC(=O)c2ccc(Cl)cc2Cl)C(Cl)(Cl)Cl)c([N+](=O)[O-])c1 (stereo not drawn)	-18.0%
CCOC(=O)c1sc2nc(NC(=O)COc3ccccc3)sc2c1C	?
CC(C)Cc1nc(N2CCC(C(N)=O)CC2)c2nnn(Cc3ccccc3)c2n1	-9.7%
O=C1C2CCCN2C(c2cccc(Br)c2)N1c1ccc(F)cc1 (stereo not drawn)	-9.6%
CCOC(=O)N1CCN(c2c(-c3ccc(C(C)C)cc3)c(=O)c2=O)CC1	-12.4%
Cc1cccc(NC(NC(=O)Cc2ccccc2)C(Cl)(Cl)Cl)c1 (stereo not drawn)	-9.0%
Cc1ccc(/C=N/Nc2nc3ccccc3[nH]2)s1	-15.1%
CCC(=O)Nc1ccc(Cl)c(NC(=O)c2ccc([N+](=O)[O-])cc2)c1	3.2%
Cn1c(=O)c(=O)n(C)c2cc(S(=O)(=O)N3CCN(Cc4ccccc4)CC3)ccc21	-7.8%
CCN(CC)CCCC(C)Nc1c2ccc(Cl)cc2nc2ccc(OC)cc12 (stereo not drawn)	?
O=C(Nc1ccccc1)C(c1ccccc1)C1CCCC1 (stereo not drawn)	-4.6%
CCC(CC)C(=O)Nc1cccc(S(=O)(=O)c2cccc(NC(=O)C(CC)CC)c2)c1	-19.9%
CN1CCN(C(=O)CN2C(=O)CC(C)(C)S(=O)(=O)c3ccccc32)CC1	-2.2%
CC(=O)Nc1ccc(C(=O)n2cnc3cc(C)c(C)cc32)cc1	-20.3%
O=C(Nc1nnc(-c2ccccc2Cl)s1)C1CCN(S(=O)(=O)c2ccc(Cl)cc2)CC1	-10.3%
CC1(c2ccccc2)CC(C)(C)N(C(=O)c2cc([N+](=O)[O-])cc([N+](=O)[O-])c2)c2ccccc21 (stereo not drawn)	-4.1%

Continued, overlapping the part above by 5 compounds.
SMILES	HPGD inh
CCC(CC)C(=O)Nc1cccc(S(=O)(=O)c2cccc(NC(=O)C(CC)CC)c2)c1	-19.9%
CN1CCN(C(=O)CN2C(=O)CC(C)(C)S(=O)(=O)c3ccccc32)CC1	-2.2%
CC(=O)Nc1ccc(C(=O)n2cnc3cc(C)c(C)cc32)cc1	-20.3%
O=C(Nc1nnc(-c2ccccc2Cl)s1)C1CCN(S(=O)(=O)c2ccc(Cl)cc2)CC1	-10.3%
CC1(c2ccccc2)CC(C)(C)N(C(=O)c2cc([N+](=O)[O-])cc([N+](=O)[O-])c2)c2ccccc21 (stereo not drawn)	-4.1%
COc1ccc(NC(=O)c2ccc(=O)oc2)cc1	-9.5%
CCOC(=O)NC(c1cccc(Cl)c1)C1CCCCCC1=O (stereo not drawn)	-7.9%
COc1ccc(-n2nnnc2-c2nc3ccccc3s2)cc1	-14.9%
O=C(CSc1nc2ccccc2[nH]1)Nc1ccccc1F	-16.0%
COc1ccc(/C=N/Nc2nc(C)c([N+](=O)[O-])c(N(C)c3ccccc3)n2)cc1OC	-21.1%
Cc1ccc(C(=O)N/C(=C\c2ccco2)C(=O)NCCc2c[nH]c3ccccc23)cc1	-0.1%
CCc1c(O)nc2ccccn2c1=O	-8.3%
C=CCc1ccc(OCC(O)COc2ccc(CC=C)cc2OC)c(OC)c1	-7.2%
O=C(CN1CCCCC1)Nc1cccc(Oc2ccccc2)c1	28.2µM*
COc1cc(/C=C(\NC(C)=O)C(=O)Nc2ccccc2C)ccc1OC(C)=O	0.2%
O=C(NC1=C(Nc2ccc(Cl)cc2)C(=O)c2ccccc2C1=O)c1ccccc1	-15.2%
Clc1cccc(CSc2nnc(-c3cccnc3)n2Cc2ccco2)c1	-17.4%
Cc1cccc(CC2S/C(=N/c3ccccn3)NC2=O)c1 (stereo not drawn)	-1.2%
CCCC(=O)Nc1cccn(Cc2ccccc2Br)c1=O	-21.0%
Cc1cc(N2CCN(c3ccc(F)cc3)CC2)nc(-c2ccccc2)n1	-22.4%
Cc1cccc(C)c1OCC(=O)Nc1ncn[nH]1	-8.4%
CNCC(C)COc1ccccc1OCc1ccccc1 (stereo not drawn)	-3.1%
CCN=C1SC(CC(=O)NCC)C(=O)N1CC (stereo not drawn)	-4.8%
O=C(CS(=O)CC(=O)Nc1ccc(Cl)cc1)NCC1OCCc2ccccc21 (stereo not drawn)	0.6%
CCOC(=O)CC(=O)CSc1nc(C)cc(-c2cccnc2)c1C#N	-5.6%
Nc1ncnc2c1ncn2CCN1CCCCC1	-7.7%
S=c1nc[nH]c2c1[nH]c1ccccc12	25.1µM*
COc1ccc(CCN(C(=O)C(F)(F)F)C(C(=O)NC2CCCCC2)c2ccc(C)s2)cc1 (stereo not drawn)	-10.1%
O=C(Nc1ccn(Cc2c(F)c(F)cc(F)c2F)n1)c1ccc(COc2cc(Cl)ccc2Cl)o1	-10.3%

Reformatted: 4 of the compounds above
canonical_smiles | HPGD inh
Cc1cc2c(C)c(C)c(=O)[nH]c2cc1N | ?
CCCCOc1ccc(S(=O)(=O)n2c(C)nc3ccccc32)cc1 | -5.9%
CCCCCNC(=O)c1cc(S(=O)(=O)N2CCCC2)ccc1F | -0.6%
CC(C)N1C(=O)CCC1C(=O)NCCc1ccc(Cl)cc1 (stereo not drawn) | 1.7%

Further results
SMILES	HPGD inh
Cn1cnnc1SCC(=O)Nc1c(F)cc(F)cc1Br	-2.4%
CC(=O)Nc1ccc(OC/C=C(\C)Cl)cc1	-7.4%
CN(C)C(=O)c1ccc(-c2cncnc2NCc2cccs2)cc1	-21.3%
CCCS(=O)(=O)N1CCCC(C(=O)NCCN(Cc2ccccc2)C(C)C)C1 (stereo not drawn)	-7.9%
CCC(Sc1nc(N)cc(N)n1)C(=O)O (stereo not drawn)	-1.0%
Cc1cccc(C2=NN(c3ccc(Br)cc3)[C@@H](C(=O)N3CCOC3=O)[C@@H]2c2ccc(F)cc2)c1	?
N=c1nc(N)nc(N)n1-c1ccc(S(N)(=O)=O)cc1	2.8%
O=c1[nH]c2c(c(=O)n1Cc1ccccc1)CCC2	?
Cn1c(CCN2CCCCC2)nc2cc(NC(=O)C3CCCCC3)ccc21	3.5%
CCN(CC)CCc1c(C)[nH]c(C(=O)OCc2ccccc2)c1C	-3.0%
CC(NC(=O)Nc1cccnc1)(C(F)(F)F)C(F)(F)F	-14.8%
COc1ccc2c(c1)c(C(=O)CN1CCC3(CC1)OCCO3)c(C)n2C	-3.6%
CCOC(=O)c1cccc(NC(=O)N[C@@H](C)C(=O)OC)c1	1.3%
COc1cccc2cc(-c3nc(-c4cccs4)cs3)c(=O)oc12	-23.5%
CCOCCCNCC(=O)Nc1ccc(OC(F)(F)F)cc1	-3.1%
Nc1ccccc1SCc1cn2ccccc2n1	-7.9%
COC(=O)CCS(=O)(=O)c1cc(Cl)ccc1Cl	-14.9%
COc1ccc(CNC(=O)c2c(N)n(CCCN3CCOCC3)c3nc4ccccc4nc23)cc1	?
COc1cc2[nH]c3c(N4CCN(c5ccc(Cl)cc5)CC4)ncnc3c2cc1OC	?
Cc1cc(C)c2oc(=O)cc(CN3CCOCC3)c2c1	-21.5%
COC(=O)Cc1c(C)c2ccc(O)c(CN3CCCC(C)C3)c2oc1=O (stereo not drawn)	?
Cc1cccc(C)c1NC(=O)COC(=O)c1nonc1N	-11.4%
COc1ccc(NC2c3ncccc3C(=O)N2Cc2ccccc2)c(OC)c1 (stereo not drawn)	-18.4%
